D1 ag: agonists of human D1 dopamine receptor. P21728. HEK293 T-REx D1 cells, calcium flux, agonist mode. activation, % at 2 µM. 360,000 compounds, 1% hits; in the data active = activation above about 30%; also: 0% is about no effect
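Tetracycline-induced HEK293 TREx D1 cells, force-coupled to calcium signalling, were dye-loaded with a no-wash calcium kit. Compound was pin-added after a 10 s baseline. Fluorescence was read kinetically at 1 cycle/s for 180 s, with calcium rises flagged as agonism.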
D2 agonist: agonists of human D2 dopamine receptor; activation, % at 2 µM; P14416; HEK293 T-REx D2 cells, calcium flux agonist mode; 340,000 compounds, 0.53% hits;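 active = activation over 3 SD above normal in the single-dose calcium agonist read, cut at about 30% in these data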; also: 0% is about no effect
Target sequence (P14416 whole entry, looked up): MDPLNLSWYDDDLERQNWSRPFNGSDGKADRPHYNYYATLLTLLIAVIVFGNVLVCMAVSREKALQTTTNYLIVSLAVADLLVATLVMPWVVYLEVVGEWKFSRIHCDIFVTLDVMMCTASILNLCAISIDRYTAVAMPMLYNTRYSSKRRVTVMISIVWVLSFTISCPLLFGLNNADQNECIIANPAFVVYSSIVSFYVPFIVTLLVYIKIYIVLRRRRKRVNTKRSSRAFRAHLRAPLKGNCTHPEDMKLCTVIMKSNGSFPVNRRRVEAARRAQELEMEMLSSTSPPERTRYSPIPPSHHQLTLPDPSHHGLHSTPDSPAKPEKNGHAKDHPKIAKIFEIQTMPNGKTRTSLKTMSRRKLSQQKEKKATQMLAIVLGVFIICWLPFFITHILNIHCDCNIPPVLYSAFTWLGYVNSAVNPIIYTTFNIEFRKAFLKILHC
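Calcium-flux readout, 1 cycle/sec over 180 s following compound pin transfer, in inducible HEK293 Trex D2 cells (force-coupled); dopamine controls included. Positive calcium responses during this window marked compounds as potential agonists.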
D1 potentiator: human D1 dopamine receptor positive modulation; P21728; HEK293 TREx D1 cells, calcium flux, dopamine EC20 potentiation; potentiation, % at 10 µM; 360,000 compounds, 0.036% hits; in the data active = potentiation above about 30%; also: 0% is about no effect
D2 PAM: D2 dopamine receptor (human) potentiation; HEK293 T-REx D2, calcium flux, EC20 dopamine potentiation; potentiation, % at 10 µM; P14416; 340,000 compounds, 0.34% hits;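 active = potentiation over 3 SD above the plate norm, cut at about 30% in these data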; also: 0% is about no effect
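Using a no-wash calcium dye in inducible, force-coupled HEK293 Trex cells expressing D2, we tracked fluorescence each second for 180 s after compound, then for 180 s after EC20 dopamine to detect augmented signalling.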
D2 antagonist: antagonists of human D2 dopamine receptor; P14416; HEK293 TREx D2 cells, calcium flux, dopamine EC80; inhibition, % at 10 µM; 340,000 compounds, 2% hits; in the data active = inhibition above about 30%; also: 0% is about no effect
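Calcium mobilization kinetics were recorded at 1 s intervals in tetracycline-induced HEK293 T-REx D2 cells, first for 180 s after compound addition and then 180 s after EC80 dopamine.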
D1 antag: human D1 dopamine receptor antagonism. AID 504652. activity change, negative = inhibition, % at 10 µM. 360,000 compounds, 3.2% hits. HEK293 TREx D1 cells, calcium flux, dopamine EC80; stronger effect = lower value. P21728; in the data active = activity change below about -30%; also: % is scaled to controls: 0 for no effect and ±100 for the full control effect
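Cells carrying a force-coupled, tetracycline-inducible human D1 receptor report calcium flux. Each well gets a 10 s baseline, compound with 180 s monitoring, then an EC80 dopamine stimulus with a second 180 s kinetic read.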
TRHR PAM: allosterically enhances the human TRH receptor | P34981 | TRHR cells, fluo-8 calcium fluorescence, EC20 TRH enhancement | enhancement, % at 2 µM | 360,000 compounds, 0.66% hits; in the data active = enhancement above about 30%; also: 0% is about no effect
Target sequence (P34981 whole entry, looked up): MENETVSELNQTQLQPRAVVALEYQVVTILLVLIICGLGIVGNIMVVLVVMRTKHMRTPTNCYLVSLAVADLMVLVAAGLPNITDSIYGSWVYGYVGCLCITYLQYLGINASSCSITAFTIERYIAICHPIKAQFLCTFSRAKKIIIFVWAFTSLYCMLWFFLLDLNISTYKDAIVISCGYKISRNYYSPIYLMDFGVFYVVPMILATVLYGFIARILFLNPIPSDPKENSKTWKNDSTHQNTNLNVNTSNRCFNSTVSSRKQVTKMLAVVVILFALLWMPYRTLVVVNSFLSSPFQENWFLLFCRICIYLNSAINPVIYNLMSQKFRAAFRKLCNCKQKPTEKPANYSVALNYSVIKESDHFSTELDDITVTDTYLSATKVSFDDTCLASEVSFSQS
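Enhancer read-out: after compound pinning and an initial kinetic agonist-mode read, an EC20 of TRH (10 nM final) was injected and fluo-8 calcium signal (Ex 480/Em 530) followed at 1 s/cycle for 100 cycles in TRHR-expressing cells.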
* marks the source's active call; other numbers are inactive results; / = not tested or not shown. These rows are one share of the data (hit frequency here may not be typical).

SMILES	D1 ag	D2 agonist	D1 potentiator	D2 PAM	D2 antagonist	D1 antag	TRHR PAM
N#CCCN(CCC#N)C(=O)c1ccc2c(c1)OCO2	4	0.2	-3	-17	10	-28	-3
CN(Cc1nc2ccc(F)cc2[nH]1)Cc1c(C(=O)N(C)C)nc2ccc(Cl)cn12	1	0.7	-1	-13	0	-3	23
CS(=O)(=O)N1CC(C(=O)NC2CC2)Oc2ccc(Cl)cc21 (stereo not drawn)	0	-0.1	-1	-6	6	-13	-1
CCOc1ccc(NC(=O)CN(C)C(=O)c2cccnc2Sc2ccc(Cl)cc2)cc1OCC	2	0.0	-10	13	-1	8	-3
Cc1nc2ccc(NC(=O)NCc3ccco3)cc2s1	1	-0.3	-2	/	-21	18	-5
Cc1nnc2c(SC(C)C)nc3ccccc3n12	5	-1.4	-2	2	-5	-4	29
Cc1cc2ccccc2n1-c1ccc(C(=O)N2CCC(C(=O)NCc3ccccc3Cl)CC2)s1	4	0.5	1	6	/	27	-1
Cn1c(=O)c2c(SCC(=O)Nc3ccccc3F)nc(-c3ccccc3F)nc2n(C)c1=O	1	0.9	-2	-7	7	8	15
Cc1ccc(-c2cnc(NC(=O)CCC(=O)N3CCCCC3)n2C)cc1	0	0.4	-8	-9	-7	-2	-2
O=C(CCCCCn1c(=S)[nH]c2cc3c(cc2c1=O)OCO3)NCCc1ccccc1	4	-0.8	-3	-3	7	-13	-4

Some of the entries above, reformatted.
SMILES | D1 ag | D2 agonist | D1 potentiator | D2 PAM | D2 antagonist | D1 antag | TRHR PAM
N#CCCN(CCC#N)C(=O)c1ccc2c(c1)OCO2 | 4 | 0.2 | -3 | -17 | 10 | -28 | -3
CN(Cc1nc2ccc(F)cc2[nH]1)Cc1c(C(=O)N(C)C)nc2ccc(Cl)cn12 | 1 | 0.7 | -1 | -13 | 0 | -3 | 23
CS(=O)(=O)N1CC(C(=O)NC2CC2)Oc2ccc(Cl)cc21 (stereo not drawn) | 0 | -0.1 | -1 | -6 | 6 | -13 | -1
CCOc1ccc(NC(=O)CN(C)C(=O)c2cccnc2Sc2ccc(Cl)cc2)cc1OCC | 2 | 0.0 | -10 | 13 | -1 | 8 | -3
Cc1nc2ccc(NC(=O)NCc3ccco3)cc2s1 | 1 | -0.3 | -2 | / | -21 | 18 | -5
Cc1nnc2c(SC(C)C)nc3ccccc3n12 | 5 | -1.4 | -2 | 2 | -5 | -4 | 29
Cc1cc2ccccc2n1-c1ccc(C(=O)N2CCC(C(=O)NCc3ccccc3Cl)CC2)s1 | 4 | 0.5 | 1 | 6 | / | 27 | -1
Cn1c(=O)c2c(SCC(=O)Nc3ccccc3F)nc(-c3ccccc3F)nc2n(C)c1=O | 1 | 0.9 | -2 | -7 | 7 | 8 | 15
Cc1ccc(-c2cnc(NC(=O)CCC(=O)N3CCCCC3)n2C)cc1 | 0 | 0.4 | -8 | -9 | -7 | -2 | -2
O=C(CCCCCn1c(=S)[nH]c2cc3c(cc2c1=O)OCO3)NCCc1ccccc1 | 4 | -0.8 | -3 | -3 | 7 | -13 | -4

(more compounds)
SMILES	D1 ag	D2 agonist	D1 potentiator	D2 PAM	D2 antagonist	D1 antag	TRHR PAM
Cn1c(-c2ccc3c(c2)OCO3)cnc1NC(=O)CCC(=O)NCCc1ccccc1	0	4.2	-12	-6	0	-1	0
C#CCn1c(=NC(=O)c2ccc3c(c2)OCCO3)sc2cc(OC)c(OC)cc21	-1	2.2	4	1	/	2	-1
Cc1sc2ncn(CC(=O)NCCCC(=O)N3CCC(C(N)=O)CC3)c(=O)c2c1C	3	0.3	1	-3	-21	7	6
COc1ccc(OC)c(/C=C/C(=O)OCC(=O)c2c(N)n(C)c(=O)n(C)c2=O)c1	8	0.5	9	6	3	3	-1
Cc1c(C(=O)Nc2cccc([N+](=O)[O-])c2)sc2ncn(CC(=O)N3CCOCC3)c(=O)c12	2	0.4	2	-10	1	-21	-7
Cc1ccccc1CCNC(=O)c1ccc(Cn2c(=O)c3cccn3c3cccnc32)cc1	7	-1.1	-4	-3	/	-27	0
CC(Oc1ccc(F)cc1)C(=O)Nc1sc2c(c1C(=O)NCc1cccnc1)CCCC2 (stereo not drawn)	4	-0.5	5	11	-6	20	-2
CCN(CC)S(=O)(=O)c1ccc(OC)c(NC(=O)c2cc(=O)[nH]c3ccccc23)c1	2	-0.1	2	0	5	-4	4
c1coc(CSc2ncnc3c2oc2ccccc23)c1	11	0.9	4	10	18	-5	5
O=C(CCCn1c(=S)[nH]c2ccccc2c1=O)NCc1ccco1	1	0.7	6	0	7	-23	-4
COc1ccc(C(C(=O)NC2CCCCC2)N(C(=O)c2ccccn2)c2cccnc2)c(OC)c1 (stereo not drawn)	0	1.4	0	/	-2	-3	-2
COc1ccc(C(=O)CSc2nnc3ccc(-c4ccccn4)nn23)cc1	-2	-0.3	-10	2	11	14	2
O=C1C(=O)N(CCN2CCOCC2)C(c2cccc(Cl)c2)/C1=C(/O)c1ccc2c(c1)OCO2 (stereo not drawn)	4	-0.4	0	-3	-1	-9	-2
O=C(c1ccc(Cl)cc1)C(CN1CCCC1)c1ccccc1 (stereo not drawn)	2	1.5	-4	-2	-18	-15	-7
COc1ccc(C(=O)NC(=S)Nc2ccc3[nH]c(=O)[nH]c3c2)c(OC)c1	8	/	-4	/	/	-3	6
COc1ccccc1N1CCN(C(CNS(=O)(=O)c2ccc(C)cc2)c2cccnc2)CC1 (stereo not drawn)	-1	0.6	0	3	-9	-7	-3
COc1ccc(C(C#N)Nc2ccccc2OC)cc1 (stereo not drawn)	0	0.5	-2	13	16	-18	3
COc1ccc(-n2c(=S)[nH]c3sc(-c4ccccc4)cc3c2=O)c(OC)c1	1	-0.2	4	-4	23	-1	-10
O=C(C1CC(=O)N(c2ccc(Cl)cc2)C1)N1CCCCCC1 (stereo not drawn)	-2	-1.5	0	10	9	3	11
O=C(NC1CCCC1)C(c1ccc(F)cc1)N(C(=O)c1csnn1)c1ccccc1 (stereo not drawn)	4	0.1	/	6	2	-7	6
COc1ccc(CN2C(=O)c3cccnc3C2=O)cc1S(=O)(=O)NCc1ccco1	2	0.2	-5	9	-25	-12	-5
CCOc1ccc(/C(O)=C2/C(=O)C(=O)N(c3ccccn3)C2c2ccc(Cl)cc2)c(C)c1 (stereo not drawn)	0	-1.1	-3	-4	1	24	12
Cc1ccc(-n2c(=O)[nH]c3sc4c(c3c2=O)CCCC4)cc1	0	-0.1	-1	7	/	-3	2
COc1cccc(C2/C(=C(\O)c3ccc4c(c3)OCCO4)C(=O)C(=O)N2CCCn2ccnc2)c1 (stereo not drawn)	0	0.2	-7	-6	1	4	5
COC(=O)C1=NN(c2cccc3ccccc23)C2C(=O)N(c3ccccc3OC)C(=O)C12 (stereo not drawn)	4	0.3	2	3	4	2	9
Nc1c(C(=O)Nc2cccc(Cl)c2Cl)sc2nc(-c3cccnc3)ccc12	1	0.5	7	-3	-4	-4	-1
CCc1cc(C(=O)c2ccc(OC)cc2)c(NC(=O)CN2CCN(C)CC2)s1	32*	2.1	2	0	2	8	-1
CC1CCN(C(=O)CSc2nnc(-c3ccc(S(=O)(=O)N4CCOCC4)cc3)n2C)CC1	-2	0.3	-1	53*	-17	37	2
NC(=O)Nc1ccc(C(=O)OCC(=O)Nc2cccc(S(=O)(=O)NC3=NCCC3)c2)cc1	1	2.5	2	-9	3	-11	7
O=C(CSc1nc2ccccc2nc1Cc1ccccc1)N1CCCCC1	5	-0.4	-5	-5	/	-12	-4
COc1cccc(C(=O)c2sc3nc(-c4ccccc4)cc(C(F)(F)F)c3c2N)c1	171*	/	-5	-10	/	-20	18
Cc1cccn2c(=O)c3cc(C(=O)NC4CCCC4)c(=N)n(CC4CCCO4)c3nc12 (stereo not drawn)	0	-2.8	-2	/	2	12	-4
CCOCCCn1c(=S)[nH]c2cc(C(=O)NCCc3ccccc3)ccc2c1=O	8	1.9	-15	4	-3	-13	4
O=C(NC1(C(F)(F)F)C(=O)Nc2c1c(=O)[nH]c(=O)n2-c1ccc(F)cc1)c1ccccc1 (stereo not drawn)	-1	0.0	-4	-1	/	5	3
C=CCn1c(SCC(=O)NC2CCCCC2)nc2ccccc2c1=O	0	-1.1	-8	-5	17	15	7
Cc1ccccc1-n1c(SCC(=O)Nc2ccc(Cl)cc2Cl)nc(O)cc1=O	2	-0.1	-3	-6	/	-13	-1
CN(C)CCN(Cc1ccco1)S(=O)(=O)c1cc2c(cc1Cl)NC(=O)CO2	6	1.3	-3	-9	/	-9	-1
CCCCOc1ccc2c(c1)/C(=C(\C(Cl)=C(Cl)Cl)[N+](=O)[O-])N2	9	1.4	0	4	6	40	-6
c1ccc2c(NCC3CCCO3)nc(-c3ccncc3)nc2c1 (stereo not drawn)	1	0.1	-9	8	-7	-3	-2
COc1ccc(C=O)cc1Cn1cnc2c(cnn2C)c1=O	1	0.3	1	2	-2	-36*	4
CCOc1ccc(NC(=O)CSc2c3c(nc4ccccc24)CCCC3)cc1	-1	0.3	1	1	/	-3	-4
C=CCn1c(CCNC(=O)c2cccs2)nnc1SCC(=O)Nc1cccc(F)c1	2	-0.2	0	-11	-8	3	-1
CC(C)CCNC(=O)CSc1nc2ccccc2nc1Cc1ccc(Cl)cc1	1	1.2	-1	-4	/	-4	4
CCOC(=O)c1cc(C(=O)NN)c(=O)[nH]c1C	2	0.5	-1	2	8	9	8
CC1CCN(CC(=O)Nc2ccc3c(c2)OCO3)CC1	3	0.4	-4	-11	1	9	-2
COc1cccc(C(=O)Nc2cccc(OC(C)=O)c2)c1	-2	0.4	-1	1	5	13	5
O=C(CCC(=O)c1cccs1)NC(c1ccccc1)c1ccccc1	-2	0.5	2	-11	-21	46	-1
CC(C)Sc1nc2sc3c(c2c2nnc(SCC(=O)NCc4ccco4)n12)CCCC3	0	/	4	-2	/	-6	-2
CC1(C)CC(=O)C(=C2SCCCS2)C(=O)C1	1	1.0	-6	-1	6	-12	0
Oc1ccc(C(c2nnnn2C2CCCC2)N2CCc3ccccc3C2)cc1 (stereo not drawn)	2	0.7	-1	5	-7	4	1

Later entries
SMILES	D1 ag	D2 agonist	D1 potentiator	D2 PAM	D2 antagonist	D1 antag	TRHR PAM
c1ccc(C(c2nnnn2C2CCCCC2)N2CCc3ccccc3C2)nc1 (stereo not drawn)	3	-1.5	-7	-10	-10	-4	-2
O=C(c1cc(-c2cccs2)nc2ccccc12)N1CCN(S(=O)(=O)c2cccc(F)c2)CC1	5	0.0	1	11	4	/	-6
Cc1ccnc2nc(C(=O)N3CCN(S(=O)(=O)c4ccccc4)CC3)nn12	1	-0.9	0	-4	7	-5	-8
Cc1cc(N2C(=O)C(O)=C(C(=O)c3cc4ccccc4o3)C2c2cccc(Cl)c2)no1 (stereo not drawn)	1	0.5	-5	3	20	-4	-9
COC(=O)c1ccc(C2C(C(=O)c3cc4ccccc4o3)=C(O)C(=O)N2c2cc(C)on2)cc1 (stereo not drawn)	8	1.2	1	1	6	-17	-4
Cc1ccc(CNc2ncc(-c3ccc4c(c3)OCO4)n2C)cc1	9	/	-8	/	/	1	-8
C=CCOc1cccc(C2C(C(=O)c3cc4ccccc4o3)=C(O)C(=O)N2c2cc(C)on2)c1 (stereo not drawn)	1	0.1	4	-8	-2	8	-3
CN1CCN(C(=O)C2CC(=O)N(c3ccc(Cl)cc3)C2)CC1 (stereo not drawn)	3	0.2	-2	-6	8	3	-2
CCOc1cc2[nH]c(=S)n(CCCN(CC)CC)c(=O)c2cc1OCC	2	0.4	-5	-3	7	6	4
Cc1cc(Br)cn2cc(C(=O)O)nc12	5	0.2	0	13	5	-1	0
O=S(=O)(NCc1ccc2c(c1)OCO2)c1ccc(Cl)s1	4	-0.3	-3	11	19	-27	-7

Screens: PubChem, National Center for Advancing Translational Sciences (NCATS)
